Bioassay records from PubChem.
HCMV NEC inh – inhibitors of HCMV UL50-UL53 interaction, biochemical, HTRF. normalized percent inhibition. HCMV UL50-UL53 nuclear egress complex (human cytomegalovirus). actives 0.15% (n = 190,000). inhibition, % (no concentration beside the values);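 active = both replicates at 50% or more, plus weaker picks with an unusually low signal ratio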;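 also: stock transfer was 100 nL into about 20 µL; 0% = negative control wells and 100% = wells with untagged competitor protein; inactives centre near -12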
GIV-Gai inh – inhibitors of GIV peptide binding to Galpha-i3, primary screen, biochemical, fluorescence polarization, FITC-GIV GBA peptide, rat Galphai3 | Guanine nucleotide-binding protein G(i) subunit alpha-3 (Rattus norvegicus), P08753 | 90 min; active compounds read low; scaled: aluminum fluoride 0%, vehicle 100% | percent of control (FP), % (concentration not given with the values) | actives 0.42% (n = 210,000) | AID 1224905, 2016;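 active = replicate mean at 85% of control or lower, very high polarization wells dropped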;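 also: wells of about 15 µL received 100 nL stock; the first replicate is given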
Target sequence (P08753 whole entry, looked up): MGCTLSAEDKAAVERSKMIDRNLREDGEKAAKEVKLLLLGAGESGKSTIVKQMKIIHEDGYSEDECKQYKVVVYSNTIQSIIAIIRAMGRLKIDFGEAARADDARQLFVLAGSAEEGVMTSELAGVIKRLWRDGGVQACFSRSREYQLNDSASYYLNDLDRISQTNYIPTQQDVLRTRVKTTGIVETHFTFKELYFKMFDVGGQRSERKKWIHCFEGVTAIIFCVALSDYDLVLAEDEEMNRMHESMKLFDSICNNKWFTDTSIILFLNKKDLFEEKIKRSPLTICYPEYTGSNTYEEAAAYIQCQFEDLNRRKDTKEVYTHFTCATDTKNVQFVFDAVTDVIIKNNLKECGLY
Sa growth inh – S. aureus growth inhibition at 42 and 30 °C, primary screen, LtaS inhibitor project, RN4220, two temperatures. actives 0.53% (n = 170,000). AID 720641, 2013. relative growth, % (concentration not given with the values). OD600, 20 h, 42 °C; active compounds read low;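 active = growth at 42 °C up to 50% and 20 or more points under that at 30 °C, or under 10% at both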;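 also: 300 nL library stock went into each well; scaled to the means of positive and negative controls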
Sa growth inh second temp – second read-out of Sa growth inh, no call of its own (marks repeat the call); relative growth, %; measured here: growth at 30 °C;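 optical density after 20 h as mean of two plates; 100% = untreated growth and lower means inhibition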
An asterisk follows results filed as active; nt = no result given; & = joins results of further samples.

structure	HCMV NEC inh	GIV-Gai inh	Sa growth inh	Sa growth inh second temp
COc1cccc(CN(C(=O)CSc2nc(N)nc(N)n2)C23CC4CC(CC(C4)C2)C3)c1	-24	nt	81	92
CCOC(=O)c1csc(NC(=O)c2cccs2)n1	-15&-20	106	106&89	75&61
Cn1c(O)c(C=NCc2ccc3c(c2)OCO3)c(=O)n(C)c1=S	42	nt	93	82
Cc1cc(NC(C)C)n2nc(Cc3ccccc3)nc2n1	-18	110	nt	nt
CCOc1ccc(-c2nonc2NC(=O)c2ccccc2C)cc1	14	102	101	98
CCN(CC)c1ccc2cc(-c3nc4ccccc4s3)c(=O)oc2c1	3	250	nt	nt
Cc1nc2nc(CN)nn2c(C)c1CCC(=O)Nc1cccc(Cl)c1	-14	105	nt	nt
CCCOc1ccc(C(=O)NCC2CCCO2)cc1 (stereo unspecified)	-32	104	107	100
CCC1CN(C(=O)N2CCC(C(=O)NCc3cccc(C)c3)CC2)c2ccccc2O1 (stereo unspecified)	-20	105	107	90
COc1ccc(C2(N3CCC4(CC3)OCCO4)C(=O)c3ccccc3C2=O)cc1	-29	105	89	51
COC(=O)C(C)Oc1cc(O)c2c(=O)cc(-c3ccccc3)oc2c1 (stereo unspecified)	-13&4	97&100	103	80
CCc1nnc(NS(=O)(=O)c2ccc(N3C(=O)C4CC=C(Cl)CC4C3=O)cc2)s1 (stereo unspecified)	4	100	98	92
COc1ccc(N2CC(C(=O)Nc3ccc(S(=O)(=O)N4CCCC4)cc3)CC2=O)cc1 (stereo unspecified)	-19	102	93	77
Cc1ccc(CNC(=O)CSC2=Nc3ccccc3C3=NC(C)C(=O)N23)cc1 (stereo unspecified)	nt	99	84	90
CCCCNC(=O)C1CCC(Cn2c(=O)c3sccc3n(Cc3ccccc3)c2=O)CC1 (stereo unspecified)	nt	96	69	89
O=C(NCC1CCCCC1)C1CCCN(c2ncccn2)C1 (stereo unspecified)	1	104	101	104
Cn1c(=O)c2c(NCc3ccccc3)cc(=O)n(C)c2n(C)c1=O	-10	107	100	89
COc1ccc(C2(CNC(=O)c3ccco3)CCOCC2)cc1	-4	nt	89	81
C=CCN1C(=O)/C(=C/c2ccc3ccccc3n2)S/C1=N/S(=O)(=O)c1ccc(C)cc1	nt	95	110	98
COc1ccc(S(=O)(=O)N2CC(OCc3ccc(C)cc3)C2)cc1OC	-23	99	nt	nt
CC(C)(C)n1ncc2c(=O)n(CC(=O)NC3CCCCC3)cnc21	nt	102	92	86
COCC(C)n1c(C)cc(C(=O)COC(=O)c2ccc(S(=O)(=O)N3CCCC3)cc2)c1C (stereo unspecified)	-29	nt	98	91
CN(C1CCCCC1)S(=O)(=O)c1ccc(Cl)c(C(=O)O)c1	-11	nt	86	94
CCOc1ccc(C2c3c(-c4c(C)cc(C)cc4O)n[nH]c3C(=O)N2CC2CCCO2)cc1OCC (stereo unspecified)	-13	105	nt	nt
c1cc2c(cc1OCc1nn[nH]n1)OCO2	10	104	87	73

The list continues:
structure	HCMV NEC inh	GIV-Gai inh	Sa growth inh	Sa growth inh second temp
COC(=O)CCc1sc(NC2CCCCC2)nc1-c1ccc(OC)cc1	nt	102	90	65
Cc1cc(C(=O)CSc2nc3ccccc3c(=O)[nH]2)c(C)n1-c1ccc2c(c1)OCO2	8	nt	83	99
CCN1CCN(Cc2ccc(NC3=NS(=O)(=O)C(c4ccc(C)c(C)c4)=C3C)cc2)CC1	-37	101	114	91
Cc1nc2ccc(S(=O)(=O)NCC(=O)Nc3ccc(C)c(Cl)c3)cc2s1	-16	101	108	87
COC(=O)c1scc(C)c1NNC(=O)C(F)(F)F	-46	103	56	21
CN1/C(=C\C(=O)COC(=O)c2ccccc2)C(C)(C)c2ccccc21	-10	nt	94	93
C=CCN(C(=O)Cn1c(C(=O)OC)cc2occc21)c1ccccc1	-6	103	98	90
CCn1c(SCC(=O)Nc2nc(-c3ccccc3)c(-c3ccccc3)o2)nc2ccccc2c1=O	-14	106	160	108
NNC(=O)Cc1cc(=O)n(-c2ccc(F)cc2)[nH]1	-21	nt	70	88
O=C1c2ccccc2-c2ccccc21	-56	nt	125	108
Cc1csc(-n2[nH]c(C)c(CCC(=O)Nc3ccccc3F)c2=O)n1	-23	97	nt	nt
Cc1cccc(Cc2cnc(NC(=O)C3=Cc4ccc(C)cc4OC=C3)s2)c1	-17	103	nt	nt
Nc1cc(C(=O)O)ccc1Sc1ccccc1C(=O)O	nt	99	122	81
N#CC1=C(SCC(=O)Nc2cc(Cl)ccc2C#N)NC2=C(C(=O)CCC2)C1c1cccnc1 (stereo unspecified)	-32	nt	90	90
COc1ccc(OCC(O)CN2CCS(=O)(=O)CC2)cc1 (stereo unspecified)	-4	111	114	94
CC(C)C1C(=O)NN(c2ccccc2)C1=S (stereo unspecified)	-13	nt	97	91
Cc1noc(/C=C/N(C)C)c1S(=O)(=O)NC1CCCCC1	nt	106	92	94
Cc1ccc(-c2nc(CS(=O)CC(=O)Nc3ccc(F)cc3C)c(C)o2)cc1 (stereo unspecified)	3	102	103	82
CCOc1ccc(NC(=O)CCNS(=O)(=O)c2ccc3c(c2)oc(=O)n3C)cc1	-28	101	100	83
CC(C)Cc1nnc(NC(=O)CSc2nc(=O)cc(N)n2-c2ccccc2)s1	-14	102	88	80
O=C(NCc1ccccc1)c1c(-c2ccccc2)nc2n1CCS2(=O)=O	-2	99	nt	nt
c1ccc(-c2nnc(COc3ncnc4sccc34)o2)cc1	-5	nt	105	93
c1ccc(-c2nc(-c3cccnc3)n[nH]2)nc1	-5	106	91	88
CSc1nnc(/N=C/c2ccccc2O)s1	-2	103	85	107
COc1ccccc1-c1nn(CCC(=O)NCCc2ccc(Cl)cc2)c2nc(C)cc(C)c12	nt	99	70	58

One compound at a time, as listed above. Order of values: HCMV NEC inh | GIV-Gai inh | Sa growth inh | Sa growth inh second temp
`CCOC(=O)c1csc(NC(=O)c2cccs2)n1` across the screens: -15&-20 | 106 | 106&89 | 75&61
`Cc1cccc(Cc2cnc(NC(=O)C3=Cc4ccc(C)cc4OC=C3)s2)c1` across the screens: -17 | 103 | nt | nt
`CCCCNC(=O)C1CCC(Cn2c(=O)c3sccc3n(Cc3ccccc3)c2=O)CC1` (stereo unspecified) across the screens: nt | 96 | 69 | 89
`CN1/C(=C\C(=O)COC(=O)c2ccccc2)C(C)(C)c2ccccc21` across the screens: -10 | nt | 94 | 93

Compounds above containing a furan ring, fused or not (two):
structure	HCMV NEC inh	GIV-Gai inh	Sa growth inh	Sa growth inh second temp
COc1ccc(C2(CNC(=O)c3ccco3)CCOCC2)cc1	-4	nt	89	81
C=CCN(C(=O)Cn1c(C(=O)OC)cc2occc21)c1ccccc1	-6	103	98	90

Continued:
SMILES | HCMV NEC inh | GIV-Gai inh | Sa growth inh | Sa growth inh second temp
CN1C(=S)NNC(=O)c2cc(Cl)ccc21 | -4 | 108 | 50 | 15
COc1cc(OC)cc(-c2nc(NC(=O)c3cccc(N4C(=O)NC5CC4(C)Oc4ccccc45)c3)n[nH]2)c1 (stereo unspecified) | -11 | 100 | 88 | 81
CCOc1ccc(-c2nnc(SCC(=O)NCc3ccc(Cl)cc3)o2)cc1 | 5 | 101 | 88 | 96
NNC(=O)c1nn(-c2ccccc2)c(=O)c2c(N)scc12 | -51 | 101 | 79 | 58
COc1ccc(Br)cc1CNC(=O)CSc1n[nH]c(-c2ccccc2)n1 | nt | 103 | 95 | 77
Cc1onc2c(=O)[nH]nc(-c3ccccc3)c12 | -6 | 108 | 99 | 94
CN(C)c1ccc(/C=N/NC2=NCCN2)cc1 | -24 | 111 | 102 | 104
O=[N+]([O-])O[C@@H]1CO[C@H]2[C@@H]1OC[C@@H]2O | -38 | nt | 89 | 87
C=CCSc1nc2sc(C)c(C)c2c(=O)n1-c1ccccc1 | -14 | 94 | nt | nt
NC(=O)C12CCCC(CCC1)C2 | -27 | 103 | 89 | 87
CN1C(C(=O)NCCCc2ccccc2)=C(c2ccccc2)c2cc(Cl)ccc2S1(=O)=O | -13 | 102 | nt | nt
Cc1ccc(NCc2cccn2-c2nnc(N3CCN(c4ccccc4)CC3)s2)cc1 | -1 | 102 | nt | nt
CC1CC(C)CN(S(=O)(=O)c2ccc(C(=O)Nc3nnc(-c4ccccn4)o3)cc2)C1 (stereo unspecified) | -40 | 101 | 87 | 95
CCCOc1ccc(C2C(C(=O)/C=C/c3ccco3)=C(O)C(=O)N2CCCN2CCOCC2)cc1 (stereo unspecified) | -43 | 106 | 99 | 88
CC1(C)CC(=O)c2cc(C#N)c(=O)n(-c3ccccc3)c2C1 | -23 | 97 | 91 | 79
CCOC(=O)c1cc(OC(=O)c2cccc(Cl)c2)n(-c2ccccc2)n1 | nt | 99 | 117 | 85
Cc1noc(C)c1CC(C#N)(Cc1c(C)noc1C)c1nc2ccccc2s1 | 2 | nt | 114 | 94
CCOCCCn1c(=N)c(C(=O)NC2CCCCC2)cc2c(=O)n3ccccc3nc21 | -76 | 107 | 108 | 84
COc1ccc(NC(=O)CCCn2nc(C)c3sc4ccccc4c3c2=O)cc1 | -4 | 109 | 99 | 90
CC(=O)N1CC(C(=O)Nc2cccc(-c3nnc4n3CCCCC4)c2)Oc2ccccc21 (stereo unspecified) | -24 | nt | 78 | 93
CC(=O)Nc1ccccc1OCC(=O)N(C1CCCCC1)C1CCCCC1 | -9 | nt | 101 | 98
CCc1ccc(NC(=S)NN)cc1 | nt | 105 | 107 | 61
CCC(=O)Nc1nc2ccccc2n1Cc1ccccc1C | -16 | 102 | nt | nt
COC(=O)C1(C)Cc2ccc(Br)cc2C(=O)O1 (stereo unspecified) | -22 | 110 | 88 | 82
Cc1nc(N)c(C#N)c(-c2ccc(Br)s2)c1C | nt | 100 | 86 | 91
COC(=O)c1ccccc1NC(=O)C1(c2cccs2)CCOCC1 | nt | 104 | 139 | 96
CN(C)C(=O)CSc1nc2ccccc2s1 | -2 | nt | 97 | 91
CCN(CC)c1ccc2c(c1)OC(N)=C(C#N)C2c1cccc(F)c1 (stereo unspecified) | -18 | 108 | 110 | 84
Nc1cc(C(=O)O)cc(C(=O)O)c1 | -24 | nt | 65 | 78
Cn1nc(C(C)(C)C)cc1C(=O)Nc1ccc(C(C)(C)C)cc1 | 3 | 103 | 99 | 82

Looked up above.
Result for COC(=O)c1scc(C)c1NNC(=O)C(F)(F)F in Sa growth inh second temp: 21
Result for Cc1noc(C)c1CC(C#N)(Cc1c(C)noc1C)c1nc2ccccc2s1 in Sa growth inh second temp: 94
Result for Cc1cccc(Cc2cnc(NC(=O)C3=Cc4ccc(C)cc4OC=C3)s2)c1 in HCMV NEC inh: -17
Result for CCc1nnc(NS(=O)(=O)c2ccc(N3C(=O)C4CC=C(Cl)CC4C3=O)cc2)s1 (stereo unspecified) in Sa growth inh second temp: 92
Result for CCOc1ccc(C2c3c(-c4c(C)cc(C)cc4O)n[nH]c3C(=O)N2CC2CCCO2)cc1OCC (stereo unspecified) in GIV-Gai inh: 105
Result for COC(=O)c1ccccc1NC(=O)C1(c2cccs2)CCOCC1 in GIV-Gai inh: 104

(listing goes on)
SMILES | HCMV NEC inh | GIV-Gai inh | Sa growth inh | Sa growth inh second temp
Cc1ccc(S(=O)(=O)N2CCC(C#N)=C(O)c3ccccc32)cc1 | 7 | nt | 207 | 136
Cc1c(C(=O)N2CCCC2)c(S(=O)(=O)N(C)Cc2ccccc2)c(C)n1C | -17 | 98 | 96 | 93
COc1cccc(C(=O)NCc2ccc3c(c2)CCN3C(=O)c2ccncc2)c1 | nt | 106 | 121 | 84
CC(C)C(=O)Nc1sc2c(c1C(N)=O)CCCC2 | -30 | 101 | 99 | 94
COc1cccc(CNC(=O)Cn2ncc3c4ccccc4n(C)c3c2=O)c1 | -24 | 103 | 100 | 84
CC(=O)Oc1ccc(-c2csnn2)cc1 | -11 | 104 | 86 | 90
CCOc1ccc(CNC(=O)C2CCCN2S(=O)(=O)c2cc3c(cc2Cl)NC(=O)CO3)cc1 (stereo unspecified) | -29 | 106 | nt | nt
COc1ccc(NC(=S)NC2CC(C)(C)NC(C)(C)C2)cc1 | nt | 102 | 94 | 86
Cc1cc(NC(=O)NCc2ccccc2)c(C(F)(F)F)o1 | 9 | 103 | 106 | 92
CCN(CC)S(=O)(=O)c1ccc2c(c1)nc(CN(C)C(=O)NCCc1ccccc1)n2C | -13 | 109 | nt | nt
Cc1oc(C)c(C(=O)O)c1CN | 9 | nt | 86 | 95
CCc1ccc2ncc(C(=O)c3ccc(C)c(C)c3)c(N3CCC(C(N)=O)CC3)c2c1 | 1 | 105 | 112 | 60
CC(=O)c1ccc(N2CCN(C(=O)CCCCn3c(=O)[nH]c4ccsc4c3=O)CC2)cc1 | -12 | 108 | 89 | 91
CN(CCC#N)C(=O)c1cc(Cl)ccc1Cl | -23 | 111 | 101 | 101
CN(C(=O)Cn1cnc2c(cnn2C)c1=O)C1CCCCC1 | -2 | nt | 100 | 90
CSc1ccccc1NC(=O)CCn1c(=O)sc2ccccc21 | -22 | 98 | 97 | 99
